RE007 growth inh: less growth of the S. pombe RE007 Vpr strain; S. pombe RE007 Vpr strain, BacTiter-Glo ATP luminescence, 24 h; control for the full effect not named in the record; 360,000 tested, 0.21% active; Potency, µM (series often up to 92.2 µM), inactives show at the top dose activity change, negative = less growth; AID 651644; active = well fitted falling curve with a large enough effect; inconclusive = small, poorly fitted or top-dose-only effect; inactive = no such curve, though single readings can be large or run the other way;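 also: nearly all actives have a fitted effect of over 50% in size; the assay follows cell death caused by Vpr and the record does not say whether a fall means rescue or toxicity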
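Fission yeast strain RE007, carrying one chromosomally integrated HIV-1 vpr copy, was seeded at OD 0.01 in PMG+AL medium with 23 nL pinned compound. After 24 h at 30 °C and 99% humidity, viability was read by BacTiter-Glo luminescence.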
StopGo reporter: lowers the luciferase signal of an FMDV 2A StopGo reporter | Potency, µM (series often up to 57.9 µM), without a hit: top-dose signal change, negative = less light | 410,000 tested, 1.2% active | human cells with a luciferase reporter of 2A StopGo recoding; control for the full effect not named in the record; active = well fitted falling curve with a large enough effect; inconclusive = small, poorly fitted or top-dose-only effect; inactive = no such curve, though single readings can be large or run the other way; tested in HEK293T cells; also: nearly all actives have a fitted effect of over 45% in size; luciferase light after 4 h
* = called active by the depositor; ? = inconclusive; [ ] = dose if it differs, or a comment. % is scaled to controls: 0 for no effect and ±100 for the full control effect; potency is read from the fitted curve at half-maximal effect. The list is partial, so the mix of outcomes need not match the whole.

SMILES | RE007 growth inh | StopGo reporter
CC(CNC(=O)CC[C@H]1O[C@@H](n2ccc(=O)[nH]c2=O)[C@H](O)[C@@H]1O)c1ccccc1 (stereo partly drawn) | 3.9% | -14.3%
COc1ccc(S(=O)(=O)N2CCc3ccccc32)cc1C(=O)Nc1cc(S(C)(=O)=O)ccc1Cl | 2.9% | -5.7%
Cc1cccc(S(=O)(=O)NC(=O)C2(C)CCN2C(=O)c2ccccc2)c1 (stereo not drawn) | 2.9% | 11.2%
Cc1ccccc1S(=O)(=O)N(C)C[C@H]1OCc2cn(nn2)CCCC(=O)N([C@@H](C)CO)C[C@@H]1C | 8.6% | -10.6%
C[C@@H]1CN([C@H](C)CO)C(=O)CCCn2nncc2CO[C@@H]1CN(C)C(=O)C1CCCCC1 | -10.4% | -9.2%
CCC1(c2ccccc2)NC(=O)N(CC(=O)Nc2ccc3c(c2)CCC3)C1=O (stereo not drawn) | 1.8% | -8.0%
CC[C@H](C)[C@@H](N)C(=O)NC[C@H]1O[C@@H](n2cnc3c(=O)[nH]c(N)nc32)[C@H](O)[C@@H]1O | -0.1% | -17.4%
O=C(NCc1ccccc1)C(c1ccccc1)n1c(=O)c(-c2ccco2)nc2ccccc21 (stereo not drawn) | -9.9% | -6.2%
CC(=O)c1ccc(-c2cnc3c(NC=O)cc(-c4cccc(NS(C)(=O)=O)c4)cn23)cc1 | 11.6% | -19.6%
COc1ccc(C(=O)CSc2nc(=O)n3ccc(C)cc3n2)cc1 | 17.4% | -8.8%
C[C@H]1CN([C@@H](C)CO)C(=O)CCCn2nncc2CO[C@H]1CN(C)S(=O)(=O)c1ccc(Oc2ccccc2)cc1 | -5.0% | -14.6%
O=C(Nc1ccc(F)c(Cl)c1)c1cc(C2CCCCN2C(=O)CCCc2ccccc2)on1 (stereo not drawn) | 0.8% | ?
CC(=O)C1=CCC(c2ccc(C)o2)N(S(=O)(=O)c2ccc(C)cc2)C1 (stereo not drawn) | 20.3% | -18.3%
COCCCNC(=O)C[C@@H]1C[C@@]2(C(=O)OC)CC(C)(C)CC=C2N(Cc2ccccc2)C1=O | ? | -2.4%
CCOC1=C2[C@@H](CN(S(=O)(=O)c3ccccc3C)[C@H]2c2ccc(Cl)cc2)[C@H]2C(=O)NC(=O)[C@H]2C1 | -3.5% | -15.7%
COc1cccc(-n2c(SCC(=O)NC3CC3)nc3ccccc3c2=O)c1 | 8.9% | -10.6%
C[C@H]1CC[C@]2(O[C@@H](CCO)C[C@H](O)[C@H]2O)O1 | -22.4% | -23.1%
COc1ccc(-c2ccc(C(=O)NCc3ccc(F)c(F)c3)c3occc23)c(C)c1 | 3.7%[18.4 µM] | -14.3%
COc1ccc(CNC(=O)CCNC(=O)C2CCN(S(=O)(=O)c3ccc(OC)cc3)CC2)cc1 | 8.7% | -8.1%
CCCCC1=CC2=CC(=O)C(C)(OC(=O)CC)C(=O)C2=CN1c1cccc(C#N)c1 (stereo not drawn) | -9.1% | 0.3%
CCCCCCCCNS(=O)(=O)CCNC1CCCCC1 | -5.8% | -24.7%
CC1(C(=O)NS(=O)(=O)c2ccc(C#N)cc2)CCN1C(=O)CCc1ccc(Cl)cc1Cl (stereo not drawn) | 6.5% | 0.9%
CC(C)=CCn1c2ccc(NC(=O)Nc3cccnc3)cc2c(=O)n1C | -9.6% | -13.3%
CN(C)CCNC(=O)c1cccc(-c2cccc3nncn23)c1 | 12.1% | -16.3%
Cc1cccc(C)c1NC(=O)C1(C)CN(S(C)(=O)=O)CC(=O)N1CCCN1CCOCC1 (stereo not drawn) | 0.0% | -0.4%
Cc1cccc(C)c1-n1nnnc1C(c1cc2ccccc2o1)N1CCC(n2c(=O)[nH]c3ccccc32)CC1 (stereo not drawn) | -3.6% | 10µM*
COc1ccc(S(=O)(=O)N2CCC(C(=O)N[C@@H](C)C(=O)N3CCCC3)CC2)cc1 | -0.1% | -10.2%
CC1=C(C(=O)N2CCCCCC2)CC(CC(=O)NC2CCCC2)C(=O)N1Cc1ccccc1 (stereo not drawn) | -6.6% | -7.0%
Cc1ccc(S(=O)(=O)N2[C@@H](c3cccc(Cl)c3)C(C(=O)OC(C)(C)C)=CC[C@H]2c2ccc(C(C)C)cc2)cc1 | -0.6% | -11.8%
Cc1cccc(C)c1Cn1c(C)c(C(=O)NCc2ccc(C#N)cc2)sc1=O | 4.8%[18.4 µM] | -0.7%
COc1cccc(C(NC(C)=O)c2nc(/C=C/c3ccccc3)cs2)c1 (stereo not drawn) | 2.3% | -22.1%
Cc1ccc(N(CC(=O)N2CCCCCC2)S(C)(=O)=O)c(C)c1 | 4.8% | -13.7%
O=C(NCC[C@H]1CC[C@@H](NC(=O)C2CCC2)[C@@H](CO)O1)c1cc(Cl)cc(Cl)c1 | 6.1% | 24.4%
O=C(Nc1cccc2c1CCCC2)c1cc(C2CCCCN2C(=O)c2cccs2)on1 (stereo not drawn) | -10.9%[18.4 µM] | -5.4%
NC(CCc1ccccc1)c1csc(NC(=O)Nc2cccc(C(F)(F)F)c2)n1 (stereo not drawn) | 18.0% | -23.3%
CC1(C2CC(=O)c3c(O)ccc(O)c3C2)OCCO1 (stereo not drawn) | -3.3% | ?
CC1(C(=O)NS(=O)(=O)c2cccc(C#N)c2)CCN1C(=O)Cc1cc(F)ccc1F (stereo not drawn) | -4.1%[18.4 µM] | -16.7%
NNC(=O)CN1C(=O)C2(OCCO2)c2ccccc21 | 11.7% | -3.3%
COC(=O)[C@H](Cc1ccc(O)cc1)NCCCn1cnc(C(=O)Nc2ccc(C)c(C)c2)n1 | -13.9% | -15.5%
CN1CCN(C(=O)c2cc3c(c(-c4cccc(C#CC(C)(C)O)c4)n2)[C@@H](CCO)N(S(=O)C(C)(C)C)C3)CC1 (stereo partly drawn) | -9.1% | -18.3%
CC(C)NC(=O)OCc1c(COC(=O)NC(C)C)c([N+](=O)[O-])n2c1CCC2 | 5.1%[18.4 µM] | -7.4%
CC1(Oc2cccc(C#N)c2)CCN(Cc2ccccc2OC(F)F)C1 (stereo not drawn) | -23.6% | -24.9%
CCCCCC[n+]1ccccc1/C=C/c1ccc(N(C)C)cc1 | ? | ?
CC1(C)OC(=O)C2=C(C[C@@H](C3CCCC3)O[C@H]2c2ccc(Cl)cc2)O1 | 5.6% | -16.6%
COc1ccc(CN2[C@@H](CC(C)=O)c3ccc(/C=C/C(C)=O)cc3S2(=O)=O)cc1 | -10.8% | 31.6µM*
CCN1CCN(CCNC(=O)c2ccc3c(c2)NC(=O)/C(=C\c2cccc(Cl)c2)S3)CC1 | -5.0% | -11.8%
CC1(C(=O)NCc2cccc(Cl)c2)Cc2c(-c3cccc(C(N)=O)c3)ccnc2O1 (stereo not drawn) | -8.5%[18.4 µM] | ?
CSc1ccc2c(c1)C(N1CCN(C)CC1)Cc1ccc(F)cc1S2 (stereo not drawn) | 9.2% | -22.4%

In a second layout: four of the compounds above.
SMILES,RE007 growth inh,StopGo reporter
CC1(Oc2cccc(C#N)c2)CCN(Cc2ccccc2OC(F)F)C1 (stereo not drawn),-23.6%,-24.9%
CCCCCC[n+]1ccccc1/C=C/c1ccc(N(C)C)cc1,?,?
CC1(C)OC(=O)C2=C(C[C@@H](C3CCCC3)O[C@H]2c2ccc(Cl)cc2)O1,5.6%,-16.6%
COc1ccc(CN2[C@@H](CC(C)=O)c3ccc(/C=C/C(C)=O)cc3S2(=O)=O)cc1,-10.8%,31.6µM*

The list continues.
SMILES | RE007 growth inh | StopGo reporter
O=C(NCc1ccc(F)cc1)c1cc(C2CCCCN2C(=O)c2ccc(Cl)cc2)on1 (stereo not drawn) | 9.0%[18.4 µM] | ?
COc1ccc(C(O)c2ncc(-c3cccc(OC)c3)[nH]2)cc1 (stereo not drawn) | 14.4% | 24.7%
C#Cc1cccc(Nc2nc(NCCOC)nc3ccsc23)c1 | -22.6% | ?
Cc1cc(C)n(-c2ccc(C(=O)N3CCN(S(=O)(=O)c4cccc(Br)c4)CC3)cc2)n1 | 5.1% | ?
CC(=O)Oc1ccc2c(c1)CCC1C2CCC2(C)C(OC(C)=O)CCC12 (stereo not drawn) | 2.3% | -24.7%
CCCCN1C(=O)C(CC(=O)NCCc2ccccn2)CC(C(=O)N(CC)CC)=C1C (stereo not drawn) | 5.8% | -9.9%
O=C1c2ccccc2S(=O)(=O)c2cc(C(=O)N3CCC(O)CC3)ccc21 | -4.0% | -2.0%
CCOC(=O)CNC(=O)N1Cc2ccc(Br)cc2-n2nncc2C1 | 11.0% | -15.0%
COc1cc(C(=O)N2CCN(S(=O)(=O)c3ccc(C)cc3)CC2)ccc1OCC(=O)N1CCOCC1 | -26.7% | -5.6%
COc1ccc(CC(=O)Nc2nc(OCC(F)(F)F)cnc2-c2ccc(Cl)cc2Cl)cc1 | -7.9%[18.4 µM] | -16.2%
CC(C)(C)CNC(=O)c1cc2c(Br)ccc(Br)c2nc1N | -3.6% | -27.3%
CCCCNC(=O)C1(C)CCN1C(=O)c1cc(-c2ccccc2)cs1 (stereo not drawn) | -13.0%[18.4 µM] | 52.5%[activator]

Four compounds drawn at random from those above, as already listed:
SMILES | RE007 growth inh | StopGo reporter
CC1(C(=O)NS(=O)(=O)c2cccc(C#N)c2)CCN1C(=O)Cc1cc(F)ccc1F (stereo not drawn) | -4.1%[18.4 µM] | -16.7%
CC(CNC(=O)CC[C@H]1O[C@@H](n2ccc(=O)[nH]c2=O)[C@H](O)[C@@H]1O)c1ccccc1 (stereo partly drawn) | 3.9% | -14.3%
COc1cc(C(=O)N2CCN(S(=O)(=O)c3ccc(C)cc3)CC2)ccc1OCC(=O)N1CCOCC1 | -26.7% | -5.6%
CCCCC1=CC2=CC(=O)C(C)(OC(=O)CC)C(=O)C2=CN1c1cccc(C#N)c1 (stereo not drawn) | -9.1% | 0.3%

Later entries:
SMILES | RE007 growth inh | StopGo reporter
CCOC(=O)[C@]12Cc3ccccc3[C@H]1N(CCC(=O)OC)C(=O)c1cc(OC)ccc12 | 76.9% | 28.2µM*
CC(C)C[C@H]1CN(CCCC[C@H]2CNC(=O)C(=O)N2CCc2ccccc2)C(=O)C(=O)N1Cc1ccccc1 | -4.2% | -13.4%
C[C@@H]1CCCCO[C@@H](CN(C)Cc2ccncc2)[C@@H](C)CN([C@H](C)CO)C(=O)c2cc(NC(=O)c3ccccc3)ccc2O1 | 12.5% | 2.5%
CN(Cc1ccccc1)C(=O)Cn1nnc(-c2ccccc2)c1COc1ccccc1 | 6.0% | -14.1%
O=C(Cc1ccc(Cl)cc1)Nc1cccnc1Cl | -12.5% | -12.9%
COc1cccc(CNC(=O)[C@@H]2CCCN2C(=O)[C@@H]2CCCN2C(=O)OC(C)(C)C)c1 | 3.3% | -18.8%
CC(=O)c1c(O)c(C)c(O)c2c1OC1=CC(=O)/C(=C(/C)N)C(=O)C12C (stereo not drawn) | 20.6% | ?
O=C(NCc1ccncc1)[C@@H]1CCCN1C(=O)[C@@H]1CCCN1C(=O)c1c(F)cccc1F | -0.9% | -10.6%
COc1cc(CN2CCC(C(=O)NC(C)(C)C)CC2)ccc1OCc1ccccc1 | 9.1% | 16.4%
CC(=O)OC[C@@H]1CN(Cc2ccccc2)C[C@H](n2cnc3c(NCc4ccc(F)cc4)ncnc32)O1 | 16.5% | 3.4%
CCCCNC(=O)C1c2ccccc2OCC(=O)N1Cc1ccccn1 (stereo not drawn) | -14.9% | 0.0%
Cc1c(O)cnc2nn(-c3ccccc3)c(=N)n12 | -1.0%[18.4 µM] | -8.5%
CCOC(=O)C(=O)Nc1ccc(S(=O)(=O)Nc2nccc(C)n2)cc1 | 8.6% | -11.7%
O=C(OCc1cn([C@@H]2C[C@H](c3ccc(Cl)cc3)N(Cc3cccs3)C[C@H]2O)nn1)c1ccccc1 | -7.7% | -2.3%
OC[C@H]1O[C@@H](c2nc(-c3ccc(Br)cc3)no2)C[C@@H]1O | 8.1%[18.4 µM] | 27.3%
CCN(CC)C(=O)c1cccc(-c2csc(C(C)(O)c3ccc(F)c(F)c3)n2)c1 (stereo not drawn) | 6.3% | 25.1µM*
Clc1ccc2nc(C3CCCCC3)c(CC3CCCCC3)n2c1 | 0.9% | ?
CCOC(=O)c1cc2ccccc2n1C1CCN(CCc2ccccc2)CC1 | -25.6% | -0.7%
CCCCN1C(=O)C(CC(=O)NC(c2ccccc2)c2ccccc2)CC(C(=O)N2CCCCCC2)=C1C (stereo not drawn) | -16.4% | -34.5%
CC1(C(=O)NS(=O)(=O)c2ccc3ccccc3c2)CCN1C(=O)Cc1ccc(-c2ccccc2)cc1 (stereo not drawn) | 11.7% | 0.0%
CC1C(O)=C(c2ccccc2)P(=O)(Cc2ccccc2)C1C (stereo not drawn) | 2.7% | -12.8%
CC(C)n1ncc2c(C(=O)Nc3ccccc3SCC(N)=O)cc(C3CC3)nc21 | 9.0% | -20.5%
CCCCCCCCN1[C@@H](CC(=O)OC)c2cc(F)ccc2S1(=O)=O | -1.1% | -27.3%
CCC(=O)c1cn(CC(=O)Nc2ccc(F)cc2)c2ccccc12 | -24.4% | -12.9%
C(=C\c1ccccc1)/CN1CCN(C(c2ccnc3ccccc23)c2nnnn2C2CCCC2)CC1 (stereo not drawn) | -14.4% | -2.8%
Cc1nc2ccccc2nc1CC(O)(c1ccccc1)c1ccccc1 | 13.6% | ?
Cc1ccc(S(=O)(=O)N2CCN(C(=O)N3CCCCC3)CC2)c(C)c1 | 2.4% | -27.4%
